Source: PubChem
Yeast UUG start: modulators of start codon recognition fidelity in yeast | S. cerevisiae UUG-firefly luciferase reporter, luminescence/redox ratio | activity score, % at 18.7 µM | 350,000 tested, 0.13% active;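 active = replicate mean at a twofold rise or more, about +100% in these data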;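 also: firefly luciferase made from a UUG start codon reports start codon fidelity; reporter light over untreated wells divided by growth signal over untreated wells; some hits fall short of that in this replicate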
* marks the source's active call; other numbers are inactive results; & = joins results of further samples. These rows are one share of the data; the hit share may differ from the screen's.

SMILES	Yeast UUG start
C[C@H]1CN([C@@H](C)CO)C(=O)c2cccc(NS(=O)(=O)c3cccs3)c2O[C@H]1CN(C)Cc1ccc2c(c1)OCO2	-3
CCNC(=O)[C@@H]1[C@@H](CO)[C@@H]2Cn3c(ccc(-c4ccccc4F)c3=O)[C@H]1N2CC1CC1	-6
CCCNC(=O)Nc1ccc2c(c1)OC[C@H](C)N(Cc1ccc(-c3ccccn3)cc1)C[C@@H](C)[C@@H](OC)CN(C)C2=O	-2
CCCC(=O)Nc1ccc2c(c1)OC[C@H](C)N(Cc1cncnc1)C[C@@H](C)[C@H](OC)CN(C)C2=O	-12
CN(C)CC(=O)N1[C@H](C(=O)NC2CCC2)[C@@H](CO)[C@@H]2Cn3c(ccc(-c4ccc(F)cc4)c3=O)[C@@H]21	4
CN(C)C(=O)C[C@@H]1C[C@H]2c3cc(NC(=O)c4ccc5c(c4)OCO5)ccc3O[C@H]2[C@H](CO)O1	10
COc1ccc(-c2ccc3c(c2)[C@@H]2[C@@H](CCN2C(=O)Cc2ccccc2)[C@@H](CO)N3C)cc1	-5
CCCC(=O)Nc1ccc2c(c1)OC[C@@H](C)N(C(=O)Cc1ccccn1)C[C@@H](C)[C@H](OC)CN(C)C2=O	11
Cc1cccc(S(=O)(=O)N2C[C@@H]3[C@H](c4ccccc42)[C@H](CO)N3Cc2ccccn2)c1	3
CC(C)CC#Cc1ccc([C@@H]2[C@@H](CO)N3CCCCN(C(=O)c4ccc5c(c4)OCO5)C[C@H]23)cc1	-6
C[C@H](O)C#Cc1ccc([C@@H]2[C@H](CO)N3CCCCN(CC4CCOCC4)C[C@@H]23)cc1	28
C[C@@H]1CN([C@H](C)CO)C(=O)c2cc(NC(=O)Nc3ccc(F)cc3)ccc2O[C@H]1CN(C)C(=O)Nc1cccc2ccccc12	-6
O=C(C[C@H]1CC[C@H]2[C@@H](COC[C@H](O)CN2Cc2cccc(Cl)c2)O1)NCc1cccc(F)c1	-10
CO[C@@H]1CN(C)C(=O)c2ccc(NC(=O)Nc3ccc(Cl)cc3)cc2OC[C@@H](C)N(C(=O)Nc2c(C)noc2C)C[C@@H]1C	-3
COc1ccccc1C(=O)N1C[C@@H]2[C@H](c3ccccc31)[C@H](CO)N2C(=O)C1CCOCC1	-4
CCC(=O)N1C[C@@H]2[C@H](c3ccccc31)[C@H](CO)N2Cc1ccc(F)cc1	-8
CCCNC(=O)[C@@H]1[C@@H](CO)[C@@H]2Cn3c(ccc(C4=CCCCC4)c3=O)[C@H]1N2CC	12
O=C(C[C@@H]1CC[C@H]2[C@@H](COC[C@@H](O)CN2Cc2ccc(Oc3ccccc3)cc2)O1)N1CCCCC1	11
COCC(=O)Nc1ccc2c(c1)OC[C@H](C)N(C(=O)c1cccnc1)C[C@H](C)[C@@H](OC)CN(C)C2=O	-10
CC(C)CC#Cc1ccc([C@H]2[C@H](CO)N3CCCCN(C(=O)Nc4ccccc4)C[C@@H]23)cc1	0

5 compounds from above, ordered by the value under Yeast UUG start, lowest first.
Structure	Yeast UUG start
COCC(=O)Nc1ccc2c(c1)OC[C@H](C)N(C(=O)c1cccnc1)C[C@H](C)[C@@H](OC)CN(C)C2=O	-10
COc1ccccc1C(=O)N1C[C@@H]2[C@H](c3ccccc31)[C@H](CO)N2C(=O)C1CCOCC1	-4
CC(C)CC#Cc1ccc([C@H]2[C@H](CO)N3CCCCN(C(=O)Nc4ccccc4)C[C@@H]23)cc1	0
CCCNC(=O)[C@@H]1[C@@H](CO)[C@@H]2Cn3c(ccc(C4=CCCCC4)c3=O)[C@H]1N2CC	12
C[C@H](O)C#Cc1ccc([C@@H]2[C@H](CO)N3CCCCN(CC4CCOCC4)C[C@@H]23)cc1	28

Later entries:
SMILES	Yeast UUG start
C/C=C/c1ccc([C@@H]2[C@@H](CO)N(Cc3ccccn3)[C@H]2CNC(C)=O)cc1	-12
CN1C(=O)c2cc(NC(=O)c3ccccc3Cl)ccc2OC[C@H]2O[C@H](CC(=O)O)CC[C@@H]21	-21
C[C@@H]1CN([C@@H](C)CO)C(=O)c2cc(NC(=O)Cn3cnnn3)ccc2O[C@@H]1CN(C)C(=O)Nc1cccc2ccccc12	2
CC(C)NC(=O)Nc1ccc2c(c1)CC(=O)N([C@H](C)CO)C[C@@H](C)[C@H](CN(C)Cc1ccc(C(=O)O)cc1)O2	-2
COc1ccc(NC(=O)N2C[C@H]3[C@@H](c4ccccc42)[C@H](CO)N3C(=O)C2CC2)cc1	-4
COc1ccccc1C#Cc1ccc([C@@H]2[C@H](CO)N3CCCCN(CCC(F)(F)F)C[C@@H]23)cc1	8
CO[C@H]1CN(C)C(=O)c2cc(NS(=O)(=O)c3ccccc3C)ccc2OC[C@@H](C)NC[C@H]1C	-6
COCC(=O)N1CC[C@H]2[C@@H]1c1cc(-c3cccc(F)c3)ccc1N(C)[C@H]2CO	3
C[C@@H]1CN([C@H](C)CO)C(=O)c2cccc(NC(=O)Nc3ccc(C(F)(F)F)cc3)c2O[C@H]1CN(C)Cc1ccncc1	-5
C[C@H](NC(=O)[C@H]1[C@H](CO)[C@H]2Cn3c(ccc(-c4ccccc4)c3=O)[C@@H]1N2C)c1ccccc1	6
C[C@@H]1CN([C@H](C)CO)C(=O)Cc2cc(NC(=O)Nc3cccc4ccccc34)ccc2O[C@H]1CN(C)C	7
COc1ccc(NC(=O)N2CCCCN3[C@@H](CO)[C@@H](c4ccc(C5=CCCC5)cc4)[C@@H]3C2)cc1	6
CCN(C[C@@H]1[C@@H](c2ccccc2)[C@H](CO)N1C(=O)COC)S(C)(=O)=O	1
C[C@@H]1CN([C@H](C)CO)C(=O)c2cc(NC(=O)c3ccncc3)ccc2O[C@H]1CN(C)Cc1ccc(C(=O)O)cc1	-6
O=C(C1CC1)N1CCCCN2[C@H](CO)[C@@H](c3ccc(-c4cccc(F)c4)cc3)[C@@H]2C1	18
C[C@H]1CN([C@@H](C)CO)C(=O)Cc2cc(NC(=O)CCN3CCOCC3)ccc2O[C@H]1CN(C)S(=O)(=O)c1ccccc1	-5
CC(=O)N1[C@H](CO)[C@H](c2ccccc2)[C@H]1CN(C)S(=O)(=O)c1ccccc1	1
COc1ccc(CN(C)C[C@@H]2Oc3ccc(NC(=O)CCC(F)(F)F)cc3C(=O)N([C@H](C)CO)C[C@@H]2C)cc1	2
COc1ccc(S(=O)(=O)Nc2ccc3c(c2)C(=O)N([C@H](C)CO)C[C@H](C)[C@H](CN(C)C(=O)NC2CCCCC2)O3)cc1	-19
COc1ccccc1NC(=O)N1C[C@@H]2[C@H](c3ccccc31)[C@H](CO)N2Cc1ccc2c(c1)OCO2	-6
Cc1cccc(-c2ccc([C@H]3[C@H](CO)N4CCCCN(C(=O)NC(C)C)C[C@@H]34)cc2)c1	-1
CC(C)NC(=O)N1C[C@@H]2[C@H](c3ccccc31)[C@H](CO)N2C(=O)c1cccnc1	8
COCC(=O)Nc1ccc2c(c1)C(=O)N(C)C[C@@H](OC)[C@@H](C)CN(C(=O)c1cccnc1)[C@H](C)CO2	-8
O=C(C[C@H]1CC[C@@H]2[C@H](COC[C@H](O)CN2CCc2ccccc2)O1)N1CCC(Cc2ccccc2)CC1	21
CC(C)NC(=O)N1C[C@@H]2[C@H](c3ccccc31)[C@H](CO)N2Cc1ccc(Cl)cc1	-11
O=S(=O)(c1ccc(F)cc1)N1CCCCN2[C@@H](CO)[C@@H](c3ccc(-c4cncnc4)cc3)[C@@H]2C1	10
CO[C@H]1CN(C)C(=O)c2ccc(NS(C)(=O)=O)cc2OC[C@H](C)N(CC2CC2)C[C@@H]1C	-13
CCc1csc(N2[C@H](CO)[C@H](c3ccccc3)[C@@H]2CNC)n1	2
CC(=O)N(C[C@@H]1N[C@@H](CO)[C@H]1c1ccc(-c2cccnc2)cc1)C1CCCC1	10&0
C[C@@H]1CN([C@@H](C)CO)C(=O)c2cc(NC(=O)Nc3ccc(F)cc3)ccc2O[C@@H]1CN(C)C	-2
O=C(C[C@H]1C[C@@H]2c3cc(NS(=O)(=O)c4ccc(F)cc4)ccc3O[C@@H]2[C@@H](CO)O1)NCc1ccncc1	-7
O=S(=O)(c1ccccc1)N1CCCCN2[C@@H](CO)[C@H](c3ccc(-c4cncnc4)cc3)[C@@H]2C1	-2
C[C@@H]1CN([C@H](C)CO)C(=O)c2cc(NS(=O)(=O)c3cccs3)ccc2O[C@H]1CN(C)Cc1ccncc1	-12
C[C@H](CO)N1C[C@H](C)[C@H](CN(C)C(=O)Nc2ccccc2)Oc2ccc(NC(=O)CCN3CCOCC3)cc2CC1=O	-9
O=C(Nc1cccc(Cl)c1)N1C[C@H]2[C@@H](c3ccccc31)[C@H](CO)N2Cc1cccnc1	0
C[C@@H]1CN([C@@H](C)CO)C(=O)c2cc(NS(C)(=O)=O)ccc2O[C@@H]1CN(C)C(=O)Nc1ccc(F)cc1	15
COc1cccc(-c2ccc([C@@H]3[C@@H](CO)N4CCCCN(Cc5cncnc5)C[C@@H]34)cc2)c1	-13
Cc1ccc(S(=O)(=O)Nc2ccc3c(c2)C(=O)N([C@@H](C)CO)C[C@@H](C)[C@@H](CN(C)C(=O)Nc2ccccc2)O3)cc1	3
Cc1noc(C)c1NC(=O)Nc1ccc2c(c1)C(=O)N([C@@H](C)CO)C[C@@H](C)[C@H](CN(C)Cc1ccncc1)O2	-20
C[C@H]1CN([C@@H](C)CO)C(=O)c2cccc(NC(=O)Nc3ccc(F)cc3)c2O[C@@H]1CN(C)S(=O)(=O)c1ccc(Cl)cc1	-5

Laid out differently: 2 of the compounds above
C[C@@H]1CN([C@H](C)CO)C(=O)c2cc(NS(=O)(=O)c3cccs3)ccc2O[C@H]1CN(C)Cc1ccncc1
  Yeast UUG start = -12
C[C@H](CO)N1C[C@H](C)[C@H](CN(C)C(=O)Nc2ccccc2)Oc2ccc(NC(=O)CCN3CCOCC3)cc2CC1=O
  Yeast UUG start = -9

(listing goes on)
SMILES	Yeast UUG start
CCC(=O)N(C)C[C@@H]1[C@H](c2ccc(-c3ccccc3F)cc2)[C@H](CO)N1C(C)=O	-7
C[C@H](CO)N1C[C@H](C)[C@@H](CN(C)S(=O)(=O)c2ccc(Cl)cc2)Oc2c(NC(=O)Nc3ccc(F)cc3)cccc2C1=O	-4
O=C(C[C@H]1CC[C@H]2[C@@H](COC[C@H](O)CN2Cc2ccncc2)O1)NCC1CC1	-8
N#Cc1cccc(-c2ccc3c(c2)[C@@H]2[C@@H](CCN2C(=O)c2ccncc2)[C@H](CO)N3)c1	-3
COc1ccc(CN(C)C[C@H]2Oc3c(NC(=O)Nc4ccc(C(F)(F)F)cc4)cccc3C(=O)N([C@@H](C)CO)C[C@@H]2C)cc1	13
COc1ccc(S(=O)(=O)N2CCCCN3[C@H](CO)[C@@H](c4ccc(C#CCC(C)C)cc4)[C@@H]3C2)cc1	16
O=C(c1ccccc1F)N1C[C@H]2[C@@H](c3ccccc31)[C@H](CO)N2Cc1ccc2c(c1)OCO2	13
C[C@H]1CN([C@@H](C)CO)C(=O)c2cc(NC(=O)CCCN(C)C)ccc2O[C@@H]1CN(C)C	1
CC(C)NC(=O)Nc1cccc2c1O[C@H](CN(C)S(=O)(=O)c1ccccc1)[C@H](C)CN([C@H](C)CO)C2=O	9
C[C@H](CO)N1C[C@H](C)[C@@H](CN(C)C(=O)Nc2cccc(F)c2)OCc2ccccc2-c2c(n(C)c3ccccc23)C1=O	14
CCCNC(=O)C[C@@H]1C[C@@H]2c3cc(NC(=O)CC4CC4)ccc3O[C@@H]2[C@H](CO)O1	-9
Cc1noc(C)c1NC(=O)N(C)C[C@H]1Oc2c(NC(=O)Nc3ccc(C(F)(F)F)cc3)cccc2C(=O)N([C@@H](C)CO)C[C@H]1C	17
O=C(Nc1ccccc1)N1C[C@@H]2[C@H](c3ccccc31)[C@@H](CO)N2Cc1ccccc1Cl	11
C[C@@H]1CN([C@@H](C)CO)C(=O)Cc2cc(NC(=O)Nc3ccccc3)ccc2O[C@H]1CN(C)C(=O)NC1CCCCC1	19
O=C(Nc1cccc(F)c1)N1C[C@H]2[C@@H](c3ccccc31)[C@@H](CO)N2C(=O)c1ccccn1	1
O=C(C1CCCC1)N1CCCCN2[C@H](CO)[C@@H](c3ccc(-c4ccncc4)cc3)[C@H]2C1	3
OC[C@@H]1[C@@H](c2ccc(C#Cc3ccccc3F)cc2)[C@@H]2CN(CC3CCOCC3)CCCCN12	4
C/C=C/c1ccc([C@H]2[C@H](CO)N3CCCCN(S(=O)(=O)c4cccc(C)c4)C[C@@H]23)cc1	-1
COCC(=O)N(C[C@@H]1N[C@H](CO)[C@H]1c1ccc(-c2cccnc2)cc1)C(C)C	-9
Cc1ccc(S(=O)(=O)N(C)C[C@@H]2Oc3ccc(NC(=O)CCN4CCOCC4)cc3C(=O)N([C@H](C)CO)C[C@@H]2C)cc1	3
CO[C@H]1CN(C)C(=O)c2cc(NC(=O)Nc3cccc(F)c3)ccc2OC[C@H](C)NC[C@H]1C	0
C[C@H](CO)N1C[C@H](C)[C@H](CN(C)C)Oc2ccc(NS(=O)(=O)c3ccc(F)cc3)cc2C1=O	-1
Cc1noc(C)c1S(=O)(=O)Nc1ccc2c(c1)C(=O)N([C@H](C)CO)C[C@@H](C)[C@H](CN(C)S(=O)(=O)c1ccccc1)O2	-3
CO[C@H]1CN(C)C(=O)c2ccc(NS(=O)(=O)c3cn(C)cn3)cc2OC[C@@H](C)N(CCC(F)(F)F)C[C@@H]1C	-3
CN1c2ccc(-c3ccccc3)cc2[C@H]2[C@H](CCN2C(=O)Nc2ccccc2F)[C@H]1CO	0
